# GIV Gai3 FP – inhibitors of GIV peptide binding to Galpha-i3, primary screen, biochemical, fluorescence polarization, FITC-GIV GBA peptide, rat Galphai3. Guanine nucleotide-binding protein G(i) subunit alpha-3 (Rattus norvegicus), P08753. 90 min; active compounds read low; scaled: aluminum fluoride 0%, vehicle 100%. percent of control (FP), % (concentration not given with the values). 210,000 tested, 0.42% active. AID 1224905, 2016;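 active = replicate mean at 85% of control or lower, very high polarization wells dropped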;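 also: wells of about 15 µL received 100 nL stock; the first replicate is given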
# Target sequence (P08753 whole entry, looked up): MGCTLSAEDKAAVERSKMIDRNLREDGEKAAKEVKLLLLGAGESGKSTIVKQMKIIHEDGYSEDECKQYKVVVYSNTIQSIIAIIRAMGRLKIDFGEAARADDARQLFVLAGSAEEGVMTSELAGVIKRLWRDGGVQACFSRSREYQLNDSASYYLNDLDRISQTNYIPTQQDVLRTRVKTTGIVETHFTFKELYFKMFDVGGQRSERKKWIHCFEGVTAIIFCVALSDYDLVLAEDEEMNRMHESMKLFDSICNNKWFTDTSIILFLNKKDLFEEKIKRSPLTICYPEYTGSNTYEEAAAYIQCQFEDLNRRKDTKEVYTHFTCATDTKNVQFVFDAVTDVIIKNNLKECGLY
# Sa growth 42C – S. aureus growth inhibition at 42 and 30 °C, primary screen, LtaS inhibitor project, RN4220, two temperatures; relative growth, % (test concentration not listed); AID 720641, 2013; OD600, 20 h, 42 °C; active compounds read low; 170,000 tested, 0.53% active;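 active = growth at 42 °C up to 50% and 20 or more points under that at 30 °C, or under 10% at both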;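 also: 300 nL library stock went into each well; scaled to the means of positive and negative controls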
# HCMV NEC inh – inhibitors of HCMV UL50-UL53 interaction, biochemical, HTRF; HCMV UL50-UL53 nuclear egress complex (human cytomegalovirus); normalized percent inhibition; inhibition, % (no concentration beside the values); 190,000 tested, 0.15% active; AID 1918969, 2023;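 active = both replicates at 50% or more, plus weaker picks with an unusually low signal ratio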;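 also: stock transfer was 100 nL into about 20 µL; 0% = negative control wells and 100% = wells with untagged competitor protein; inactives centre near -12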
# Sa growth 42C second temp – also measured in Sa growth 42C; calls as there; relative growth, %; measured here: growth at 30 °C;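 optical density after 20 h as mean of two plates; 100% = untreated growth and lower means inhibition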
# * hit, by the source's call; nt = not tested or not shown.
# The opening 2 compounds, ahead of the listing:
structure	GIV Gai3 FP	HCMV NEC inh	Sa growth 42C	Sa growth 42C second temp
COc1ccc(-n2c(CCC(=O)O)ccc2-c2ccccc2)c(OC)c1	101.6	-4.7	102.2	86.5
CC(Sc1nnc(N)s1)c1nc2ccccc2c(=O)[nH]1 (stereo not drawn)	101.2	-3.8	98.3	97.4

# The whole of this part (from the top)
structure	GIV Gai3 FP	HCMV NEC inh	Sa growth 42C	Sa growth 42C second temp
COc1ccc(-n2c(CCC(=O)O)ccc2-c2ccccc2)c(OC)c1	101.6	-4.7	102.2	86.5
CC(Sc1nnc(N)s1)c1nc2ccccc2c(=O)[nH]1 (stereo not drawn)	101.2	-3.8	98.3	97.4
CCCCCCOc1ccc(-c2nc3ccc(Br)cc3c(=O)o2)cc1	105.4	-40.9	92.9	89.6
Cc1cccc(C(=O)Nc2cccc(-c3ccc(N4CCN(C)CC4)nn3)c2)c1	109.7	-6.6	112.2	87.0
CCN(CC)C(=O)c1ccc(COc2ccccc2Cl)o1	nt	-16.2	89.3	87.0
NC(=O)N1CCCC1	nt	-11.0	104.3	89.5
CCc1nnc(NC(=O)c2sc(COc3ccc(Cl)c(C)c3)nc2C)s1	103.8	-20.2	nt	nt
CCC1CCCCN1S(=O)(=O)c1ccc(Cl)cc1 (stereo not drawn)	nt	-14.7	97.3	102.9
CCc1ccc(-n2c(CCC(=O)O)ccc2-c2ccc(F)cc2)cc1	104.9	-27.5	66.4	57.3
CN(C)c1nc(OCCNC(=O)COc2ccccc2Cl)nc(N(C)C)n1	99.6	-36.5	100.5	87.1
Cc1cccc(N=C2CNC(=O)NC2=O)c1	97.9	-22.4	95.2	93.5
CCOC(=O)C1=C(C)NC2=C(C(=O)CC(c3ccc(OC)cc3)C2)C1c1cc(Br)c(O)c(OC)c1 (stereo not drawn)	101.9	3.2	nt	nt
COc1cccc(C(=O)Nc2ccc3c(c2)NC(=O)CO3)c1	106.5	-31.5	nt	nt
COc1ccc(CC(=O)N2CCCC(C)C2)cc1 (stereo not drawn)	103.8	-4.8	81.8	93.6
Cc1nc2cc(-c3ccccc3)nn2c(C)c1Sc1nccc(-c2cccnc2)n1	97.8	-8.4	94.5	86.4
COc1cccc(CN2CCC(C(=O)NC(C)C)CC2)c1	nt	5.2	93.3	97.4
CCOC(=O)c1c(COC(=O)/C=C/c2ccc(C)o2)nc2ccccc2c1C	nt	-27.8	100.2	95.5
COc1ccc2oc(=O)c3c(c2c1)CC(C(F)(F)F)S3 (stereo not drawn)	96.9	nt	95.6	84.9
Cc1ccccc1Nc1nc(N)nc(CSCC(=O)NC2CCCc3ccccc32)n1 (stereo not drawn)	nt	-25.2	96.0	75.2
N=c1c2c3c(sc2nc2n1CCCCC2)CCCCC3	103.1	-4.7	95.8	90.2
Cc1cc(C)n(-c2ccc(C(=O)OCC(=O)Nc3sc4c(c3C(N)=O)CCC4)cc2)n1	nt	-21.5	74.7	72.8
COc1cc(C(=O)NN)c(-n2c(C)ccc2C)cc1OC	98.6	-39.4	95.3	88.5
Cc1cc(S(=O)(=O)Nc2c(C)nn(C)c2C)c(Cl)cc1Cl	103.6	-13.7	87.6	90.0
O=C(NC1CCCC1)c1ccc(Br)o1	nt	3.0	101.6	90.6
CCOCCOC(=O)COc1ccc2c(=O)c(Oc3cc(C)cc(C)c3)c(C(F)(F)F)oc2c1	98.3	-10.4	nt	nt

structure	GIV Gai3 FP	HCMV NEC inh	Sa growth 42C	Sa growth 42C second temp
CCOc1ccc(NC(=O)c2cnc(N3CCCCC3)c3ccccc23)cc1	106.4	nt	90.5	94.0
c1ccc(CCc2nn3cnnc3s2)cc1	103.9	-18.0	82.5	93.5
COc1ccc(NC(=O)CN=C2NS(=O)(=O)C(c3ccc(F)cc3)=C2C)cc1	103.0	-23.6	96.5	99.8
CC(C)c1ccc(NC(=O)NCC2CCCO2)cc1 (stereo not drawn)	nt	-4.8	90.8	94.2
O=C(c1ccc2c(c1)CCN2S(=O)(=O)c1ccccc1)N1CCN(c2ccc(F)cc2)CC1	104.4	-22.2	101.0	82.4
CCN1CCN(CCCNC(=O)C2c3ccccc3C(=O)N(CCOC)C2c2cn(C)c3ccccc23)CC1 (stereo not drawn)	104.9	-10.1	101.5	92.5
CCn1c(C)ccc(-c2noc(CCC(=O)Nc3nnc(COC)s3)n2)c1=O	100.9	-12.3	nt	nt
CC1CCC(NC(=O)C(C)C2Sc3ccccc3N(Cc3cccc(Cl)c3)C2=O)CC1 (stereo not drawn)	108.5	nt	111.8	85.5
CCOc1nc(NC(C)(C)CO)nc(OCC)n1	99.7	nt	128.8	85.8
Cc1cc2nc(N3CCN(S(=O)(=O)c4ccccc4)CC3)c3ccccc3n2n1	nt	-2.5	99.8	93.8
CC(C)OC(=O)N(O)c1cccc(Cl)c1	107.3	-15.2	113.5	85.5
C/C(=N/OCC(=O)Nc1sc2c(c1C#N)CCCC2)c1cccs1	102.4	-22.4	99.3	85.3
O=C(O)COCC(=O)Nc1ccccc1-c1ccccc1	98.0	7.5	92.2	86.8
COc1ccccc1Cc1nc2ccccc2[nH]c1=O	104.7	-21.1	88.5	91.4
Oc1ccc2ccccc2c1C=NCc1ccccc1	103.2	59.8*	101.8	55.4
O=C(Nc1cccc(-c2ccno2)c1)c1cc(-c2cccnc2)on1	107.8	-9.6	nt	nt
CCCN(CCC)C(=O)Cn1nnc2sc(-c3ccccc3)cc2c1=O	102.5	-37.1	97.9	82.2
NN(CCC(=O)N1CCCCC1)C1=NS(=O)(=O)c2ccccc21	98.6	-14.7	105.5	90.7
O=C(NCc1ccccc1)c1cccc(N2CCCS2(=O)=O)c1	111.1	nt	103.0	98.3
COC(NC(=O)Nc1nc2ccccc2s1)(C(F)(F)F)C(F)(F)F	105.2	nt	5.5*	15.0*
CCN(CC)S(=O)(=O)c1ccc2nc(Cc3ccccc3)[nH]c2c1	nt	-5.3	112.5	89.0
N#C/C(C(=O)NCc1ccco1)=C1/SC=C(c2ccccc2)N1c1ccccc1	106.6	-0.1	110.9	112.3
O=C(O)c1cccc(-c2nn[nH]n2)c1	97.3	-11.3	113.9	85.6
CCCCC(=O)N1CCN(c2nc3ccccc3cc2-c2noc(C)n2)CC1	107.3	0.6	nt	nt
CC(Cc1ccccc1)NC(=O)C1CCCNC1=O (stereo not drawn)	nt	-8.9	93.2	87.7

structure	GIV Gai3 FP	HCMV NEC inh	Sa growth 42C	Sa growth 42C second temp
CCOC(=O)c1cnc2c(C(F)(F)F)cccc2c1Nc1cccc(C(=O)OC)c1	103.0	-31.8	93.8	87.5
COc1cc(NC(=O)Cn2c(=O)n(Cc3ccccc3Cl)c(=O)c3cc(OC)c(OC)cc32)cc(OC)c1	106.1	-17.3	104.7	93.4
NC(=O)Nc1ccc(C(=O)OCC(=O)NCc2ccccc2)cc1	nt	-11.2	106.9	91.0
COc1ccc(OC)c(N=c2cc(-c3ccc4c(c3)OCO4)oc3ccccc23)c1	103.5	nt	99.3	85.1
CCC(CO)NCc1ccc(-c2ccc(Cl)cc2)o1 (stereo not drawn)	106.0	-25.3	nt	nt
O=c1cc(N2CCc3ccccc32)[nH]c(=O)n1Cc1ccc(F)cc1	101.0	-0.4	117.3	82.7
Cc1ccc2nc(N3CCN(C=O)CC3)nc(-c3ccccc3)c2c1	98.8	6.5	98.8	78.2
CC(C)(C)c1ccc(NC(=O)CSc2nnc3scc(-c4ccccc4)n23)cc1	103.7	-43.9	98.3	69.9
Cc1c(C)c(C)c(C(=O)CCCC(=O)O)c(C)c1C	101.9	-17.5	105.2	93.5
CCC(C(=O)NCCC(C)C)N(C(=O)Cn1nnc(-c2ccc(C)cc2)n1)c1cccc(O)c1 (stereo not drawn)	103.6	-4.1	101.9	94.0
O=C(Nc1nncs1)C1c2ccccc2Oc2ccccc21	100.6	10.8	84.8	81.0
O=C(O)c1cc(N2CCOCC2)ccc1NS(=O)(=O)c1ccc(F)cc1	98.8	-36.3	nt	nt
COc1cccc(CNC(=O)Cn2ccc3cc(S(=O)(=O)N4CCC(C)CC4)ccc32)c1	102.3	nt	105.8	91.8
O=c1[nH]cnc2c1ncn2[C@@H]1C[C@@H](O)[C@H](CO)O1	110.8	-45.8	108.4	98.7
Cn1c(C(=O)O)c(CNC2CCCCC2)c2ccccc21	101.5	-18.0	91.5	89.4
CCOC(=O)c1ccccc1NC(=O)N(C(C)C)C1CCN(C(C)=O)CC1	101.0	-9.4	121.3	88.4
c1ccc(-c2nn3c(-c4ccc5ccccc5n4)nnc3s2)cc1	114.2	-25.0	nt	nt
O=C(Nc1ncc(S(=O)(=O)c2ccc([N+](=O)[O-])cc2)s1)c1ccco1	101.0	-33.2	nt	nt
Cc1ccc(S(=O)(=O)CCN2CCN(c3ccccn3)CC2)cc1	103.8	-5.5	111.2	84.5
CC(C)Nc1ccc(Nc2ccnc3cc4ccccc4cc23)cc1	99.0	nt	-1.9*	-1.2*
CN(C)S(=O)(=O)c1ccc(C(=O)N(Cc2cccnc2)c2nc3c(F)cc(F)cc3s2)cc1	101.7	nt	115.0	85.4
CCc1ccc(NC(=O)C2CCN(S(=O)(=O)c3cccc(-c4noc(C)n4)c3)CC2)cc1	104.9	nt	106.0	89.3
O=C(CN1C(=O)c2ccccc2S1(=O)=O)NCc1ccccc1	101.5	-11.9	nt	nt
Cc1ccc(/C=c2/sc3nc(=O)cnn3c2=O)cc1	91.6	71.6*	108.3	87.6
Cc1ccc(-n2nc3c(N4CCCC(C(=O)NCCc5ccccc5)C4)nnc(C)c3c2C)cc1 (stereo not drawn)	104.4	nt	96.6	87.4

structure	GIV Gai3 FP	HCMV NEC inh	Sa growth 42C	Sa growth 42C second temp
O=C(NCCc1ccccc1)c1noc2c1CCCC2	101.0	-15.2	102.7	93.5
COc1ccc(Cn2c(O)c(/C=N/Nc3nc(C)cc(=O)[nH]3)c3ccccc3c2=O)cc1	nt	-8.4	106.0	94.0
CCCCSc1nnc2c(n1)OC(/C=C/c1ccco1)Nc1ccccc1-2 (stereo not drawn)	100.8	-27.3	nt	nt
Cc1[nH]c2ccc(C(=O)O)cc2c1C(C)C	104.5	nt	96.1	97.7
Clc1c(C=NCc2ccco2)sc2ccccc12	nt	-34.2	91.8	92.3
O=C(c1ccc2c(c1)OCO2)N1CCC(c2nc(-c3ccc(S(=O)(=O)N4CCCC4)cc3)no2)CC1	99.6	2.8	nt	nt
O=C1Cc2cc(C(=O)CSc3nnc(-c4ccccn4)c(-c4ccccn4)n3)ccc2N1	101.0	-61.7	104.4	76.2
CCN1CCCC1CNC(=O)c1ccc2nnc(C)n2c1 (stereo not drawn)	101.5	-36.5	nt	nt
COC(=O)/C=C1\SC(c2ccccc2)=NC1=O	269.4	-9.4	74.7	71.1
CCOC(=O)c1ccc(NC(=O)C(=O)NCCc2ccc(OC)cc2)cc1	107.0	-46.3	100.5	86.3
O=C(NS(=O)(=O)c1ccc(N=NN2CCOCC2)cc1)C12CC3CC(CC(C3)C1)C2	97.0	6.4	130.2	110.5
CC1(C)Cc2c(c3ccccc3n2-c2ccccc2)C(C)(C)N1	103.6	nt	90.8	69.0
CCCS(=O)(=O)/C(C#N)=C/c1sccc1Oc1ccccc1	101.7	-32.5	95.0	86.9
CSc1nc2c(c(C(F)(F)F)n1)CC(C)CC2 (stereo not drawn)	103.7	1.0	93.2	90.8
COC(=O)c1ccc(COc2ccc(C3OC(C)CC(C)(C)O3)cc2OC)cc1 (stereo not drawn)	103.8	nt	105.2	83.0
Cc1ccc(SCCNC(=O)c2cccnc2Oc2ccccc2)cc1	106.3	4.6	97.0	94.2
COc1cc2c(cc1OC)C(C)N(C(=O)Nc1ccccc1)CC2 (stereo not drawn)	104.9	0.1	100.9	66.4
COc1ccccc1C1NC(=O)c2n[nH]c(-c3cccs3)c21 (stereo not drawn)	105.8	-10.8	104.8	93.1
CSc1cccc(NC(=O)CN(C)S(=O)(=O)c2cnc[nH]2)c1	104.0	nt	96.8	89.8
C=CCc1cccc(C2Nc3ccccc3C(=O)N2O)c1O (stereo not drawn)	102.2	-8.1	66.4	37.0
O=C(Nc1cccs1)Nc1nnc(C2CC2)s1	98.1	-3.9	91.7	83.7
Cc1ccc(S(=O)(=O)N2C(=O)CCC2C(=O)NCCOc2ccccc2C)cc1 (stereo not drawn)	97.4	-8.2	101.4	83.5
N#C/C(=C\c1cccnc1)C(=O)OCc1ccccc1	103.4	-23.4	102.3	94.5
CC(=O)Nc1ccc(-c2nc(-c3ccccc3)nc3ccccc23)cc1	102.4	-27.0	nt	nt

# 3 neighbouring compounds already listed, quoted:
structure	GIV Gai3 FP	HCMV NEC inh	Sa growth 42C	Sa growth 42C second temp
C=CCc1cccc(C2Nc3ccccc3C(=O)N2O)c1O (stereo not drawn)	102.2	-8.1	66.4	37.0
O=C(Nc1cccs1)Nc1nnc(C2CC2)s1	98.1	-3.9	91.7	83.7
Cc1ccc(S(=O)(=O)N2C(=O)CCC2C(=O)NCCOc2ccccc2C)cc1 (stereo not drawn)	97.4	-8.2	101.4	83.5

# Screening data: PubChem BioAssay, ICCB-Longwood Screening Facility, Harvard Medical School
